# Assay outcomes as filed in PubChem BioAssay.
# BJeLR lethal: kills HRASV12-expressing BJeLR cells; BJeLR (HRASV12) viability, CellTiter-Glo ATP luminescence, 48 h; reference of the scale not given here; inhibition, % (concentration not given with the values); 0.17% of 300,000 active; AID 1554;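 active = replicate mean above 50%; inconclusive = above 50% but judged a plate artefact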;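 also: 50 nL library stock added to about 25 µL; numbers are from one replicate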
# ugtP null kill: compounds lethal to S. aureus RN4220 ugtP deletion mutant; OD600 growth, 16 h; some inactives read as strong as hits; growth inhibition, % (no concentration beside the values); 0.54% of 330,000 active; AID 1259309;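 active = z-score under -3 and OD600 up to 0.15 on both plates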;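 also: plate controls were untreated wells for no effect and antibiotic for full effect; wells of about 80 µL received 100 nL stock; the first replicate is given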
# Mtb hypoxia inh: Mtb hypoxia fluorescent reporter inhibition; M. tuberculosis hypoxia-regulated fluorescent reporter, fluorescence; AID 1159583; 0.1% of 300,000 active; fluorescence inhibition, % (test concentration not listed);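 active = 35 to 45% if threefold the growth effect, above 45% if 1.5-fold the growth effect; inactive = the rest, general growth blockers included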;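 also: wells of about 50 µL received 100 nL stock; 0% = vehicle wells and 100% = reference inhibitor wells; whole bacteria with a GFP reporter of the hypoxia response; strong numbers were not always called active; many hits fall short of the cut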
# PrP 5UTR inh: suppresses PrP 5' UTR mRNA reporter expression; inhibition, % (concentration not given with the values); 0.35% of 340,000 active; cell-based PrP 5' UTR mRNA reporter, plate reader;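 active = every replicate at 50% or more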;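 also: 0 = median of the neutral control wells; tested in H4 reporter cells; numbers are from one replicate; inactives centre near -14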
# Bead autofluor: counter-screen for toxin protease inhibitors: compound fluorescence; compound autofluorescence counterscreen, microsphere flow cytometry; hits give high values; fluorescence intensity (no concentration beside the values); 3.1% of 360,000 active; AID 624483;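 active = at least 3 SD above the mean of all compounds, about 16000 in these data; inconclusive = too few beads counted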;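 also: 100 nL of 1 mM stock went into each well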
# RN4220 kill: S. aureus RN4220 growth inhibition; OD600, 16 h; inhibition, % (no concentration beside the values); 0.33% of 330,000 active; AID 1259311;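 active = z-score of -3 or lower and OD600 up to 0.18 on both plates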;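 also: plate controls were untreated cells for no effect and reference antibiotic for full effect; stock transfer was 100 nL into about 80 µL; one replicate is shown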
# Mtb hypoxia inh growth: recorded beside Mtb hypoxia inh, whose call it bears; growth inhibition, %; measured here: M. tuberculosis growth (absorbance);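 0% = vehicle and 100% = reference antibiotic; read after six days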
# * marks the source's active call; other numbers are inactive results; ? = inconclusive; · = no result given.
SMILES,BJeLR lethal,ugtP null kill,Mtb hypoxia inh,Mtb hypoxia inh growth,PrP 5UTR inh,Bead autofluor,RN4220 kill
Cc1cc(OCC(C)C)ccc1/C(O)=C1/C(=O)C(=O)N(Cc2cccnc2)C1c1ccncc1 (stereo not drawn),-5,-9,-2,10,-9,3216,-7.2
CCc1ccc(/C=C/C(=O)c2c(C)cc(C)[nH]c2=O)cc1,-2,-2,·,·,-6,2410,0.3
Cc1ccc2c(c1)C(=O)C(=O)N2Cc1ccc(C(F)(F)F)cc1,·,6,16,8,-10,3836,13
O=C1/C(=C/N(C(=O)c2ccco2)c2ccc(Br)cc2)Sc2ccccc21,2,11,9,-2,-123,3055,9.5
NC(=O)CC(NC(=O)c1ccccc1)c1ccc(N2CCN(c3ccc(F)cc3)CC2)c([N+](=O)[O-])c1 (stereo not drawn),-20,1,-4,-4,-7,3036,-9.2
O=C(Oc1ccccc1)c1ccc2nccnc2c1,-7,8,-6,4,-8,16682*,6.0
O=C1NC(=O)/C(=C\c2ccc(O)cc2O)S1,3,7,8,5,-24,6955,2.2
CCn1c(COc2cccc(C)c2)nnc1SCC(=O)Nc1cccc(C(=O)O)c1,9,-2,·,·,-9,3558,2.2
COc1ccc(Cl)cc1NC(=O)CCCC(=O)c1ccccc1,-7,10,4,8,-24,3639,-1.1
COc1cc(C(=O)NCc2nnc(SCC(=O)NC3CCCC3)o2)cc(OC)c1OC,-9,12,-1,-5,-1,4169,4.5
COc1ccc(/C=C/c2cc(=O)c3cc(Cl)ccc3o2)cc1,-5,-5,6,-5,-31,2736,5.3
CCCCn1c(O)c(C(C)=NCc2cc(OC)cc(OC)c2)c(=O)[nH]c1=O,4,-6,11,24,-12,9561,3.2
Cc1cc(C(=O)CCl)c(C)n1CCc1ccc(F)cc1,3,-2,18,16,-24,4011,21
CCOc1ccc(-n2c(C)cc(C=NNC(=O)CC(=O)NC3CCCCC3)c2C)cc1,·,1,6,3,·,·,2.0
CC(C)(C)N(NC(=O)Nc1ccccc1)C(=O)c1ccccc1,-1,-6,5,3,-32,2163,3.8
Cc1ccc2c(c1)N(CCCC(=O)NCCC1=CCCCC1)C(=O)CO2,2,-2,5,1,-18,10227,0.9
Cc1ccc(-c2cc(C(=O)NCCN3CCOCC3)c3ccccc3n2)o1,-13,4,0,7,-8,5959,0.2
O=C(CN1CCN(c2cccc(Cl)c2)CC1)NCc1ccccc1,-14,14,7,-10,-17,2819,1.8
Cc1csc(SCC(=O)Nc2nnc(C)s2)n1,4,6,3,-8,-21,6133,1.2
Cc1nnc2sc(-c3ccncc3)nn12,-5,6,0,-3,-3,3301,7.7
CCN1C(=O)C2C(c3ccc(-c4ccc5c(c4)OCO5)cc3)N3CCC[C@@]3(C(=O)OC)C2C1=O (stereo partly drawn),·,-14,7,6,·,·,14
COc1ccccc1C(=O)C(=O)c1ccccc1OC,·,-2,16,11,-10,3881,-0.3
COC(=O)CSC1=NS(=O)(=O)c2ccccc21,-5,·,·,·,-9,3072,·
Cc1cc2c(cc1S(=O)(=O)NCCc1ccccc1)NC(=O)CO2,-14,7,5,1,-6,5346,2.6
CC(C)Sc1nnc2n(CCc3ccccc3)c(=O)c3c4c(sc3n12)COC(C)(C)C4,-7,-4,·,·,·,·,4.8
CC1(C)Cc2sc3c(=O)[nH]c(=S)[nH]c3c2CO1,6,5,6,-10,-17,4468,1.1
CC1=CC=CN2C1=NC(=O)CC2(C)C(=O)N(CC(=O)NC1CCCC1)c1ccccc1C (stereo not drawn),-6,13,6,4,-30,3174,7.7
COc1ccc(S(=O)(=O)N2CCOCC2)cc1NC(=O)CCc1c[nH]c2ccccc12,9,1,-3,17,-12,4094,3.4
COCC(=O)Nc1ccc(-c2cn3cccnc3n2)cc1,13,-1,-13,1,-5,10848,-0.1
COC(=O)[C@H](C)NC(=O)Nc1cccc(Br)c1,-8,8,12,3,-24,4390,0.0

# 3 entries already listed, arranged by length of the SMILES, descending.
SMILES,BJeLR lethal,ugtP null kill,Mtb hypoxia inh,Mtb hypoxia inh growth,PrP 5UTR inh,Bead autofluor,RN4220 kill
Cc1cc(OCC(C)C)ccc1/C(O)=C1/C(=O)C(=O)N(Cc2cccnc2)C1c1ccncc1 (stereo not drawn),-5,-9,-2,10,-9,3216,-7.2
CCc1ccc(/C=C/C(=O)c2c(C)cc(C)[nH]c2=O)cc1,-2,-2,·,·,-6,2410,0.3
COc1ccc(Cl)cc1NC(=O)CCCC(=O)c1ccccc1,-7,10,4,8,-24,3639,-1.1

# The list continues.
SMILES,BJeLR lethal,ugtP null kill,Mtb hypoxia inh,Mtb hypoxia inh growth,PrP 5UTR inh,Bead autofluor,RN4220 kill
CCC(=O)N1CCc2cc(S(=O)(=O)NCCN3CCC(C)CC3)ccc21,6,1,·,·,4,5222,1.0
CCCn1c(SCC(=O)NCc2cccs2)nc2c1c(=O)n(C)c(=O)n2C,-5,5,14,0,4,10535,4.5
CC1=CC(=NOC(=O)c2cccc([N+](=O)[O-])c2)C=C(C)C1=O,-6,-1,·,·,-4,2746,1.5
O=C(COC(=O)Cc1c(F)cccc1Cl)Nc1ccc2[nH]c(=O)[nH]c2c1,·,7,10,5,-14,2956,5.0
CC(C)C[C@@]12C(=O)N(c3ccc(Br)cc3)C(=O)N1C(c1ccc(Br)cc1)C1C(=O)N(C(C)(C)C)C(=O)C12 (stereo partly drawn),·,-37,1,10,·,·,-8.6
CC(c1ccon1)N(C)Cc1cn(C)nc1-c1ccc2c(c1)OCCO2 (stereo not drawn),-3,6,7,1,-8,3522,5.9
Cc1cc2[nH]c(=O)c(=O)[nH]c2cc1S(=O)(=O)N1CCN(c2cccc(Cl)c2)CC1,-10,-2,·,·,-19,4453,-5.1
CCOc1ccc(NC(=S)N(CCc2c(C)[nH]c3ccc(C)cc23)Cc2ccncc2)cc1,4,-3,4,3,-26,7088,0.7
COC(=O)C1(CC2CC(c3ccncc3)=NO2)CCN(C(=O)OC(C)(C)C)CC1 (stereo not drawn),3,-1,4,9,-9,4096,7.9
Cc1ccc(CNC(=O)CSc2nc3ccsc3c(=O)n2Cc2ccccn2)cc1,-1,6,0,3,-15,4581,4.2
Nc1ccc2nc(C3CCCCC3)[nH]c2c1,-1,1,1,-2,-16,2261,-0.3
Cc1c2c(n3c(nc4ccccc43)c1C#N)N(CCN(C)C)CC2,4,10,9,12,-28,3776,4.5
COCc1ccc(C(=O)Nc2ccc(C(=O)O)cc2)o1,11,12,0,5,-23,5058,3.6
CC(=O)O[C@]1(C(C)=O)CCC2C3C=C(C)C4=CC(=O)CCC4C3CC[C@@]21C (stereo partly drawn),·,6,7,3,·,·,4.9
Cc1nnsc1-c1onc(C)c1C(=O)Nc1cc(Cl)cc(Cl)c1,-4,-23,5,14,-5,4541,-1.9
C=CCNC(=S)NNC(=O)CCC(O)CCCCC (stereo not drawn),-7,0,9,14,-2,3177,6.7
COC(=O)c1ccc(-c2nc3ccc(C)cc3o2)cc1,22,-2,2,5,-87,4513,1.1
COc1ccccc1C(=O)NCCC(=O)N(C)CC(=O)Nc1ccc(Cl)cc1,-6,0,2,-9,-18,5320,-0.7
C[C@]12CCC(=O)C=C1C(O)CC1C2C(O)C[C@@]2(C)C1CC[C@]2(O)C(=O)CO (stereo partly drawn),·,-2,0,4,·,·,8.1
O=S(=O)(c1cnc[nH]1)N1CCCCCC1,-1,6,·,·,-13,4989,4.9
C=CCn1c(SCc2ccc(C#N)cc2)nnc1-c1ccc(C)cc1,-6,-1,10,6,-7,10830,3.5
CCOC(=O)C1CCCN(C(=O)c2cnn3c(C(F)(F)F)cc(-c4ccccc4)nc23)C1 (stereo not drawn),1,0,-2,-12,-18,10179,-0.3
O=C(CCSc1ccc(Cl)cc1)c1ccco1,-4,84*,12,2,-12,3014,1.6
COC(=O)c1sc2ncccc2c1OCc1ccc(Cl)cc1,5,-6,-8,-11,9,?,14
CCc1ccc(N2CC(C(=O)N/N=C/c3cccc([N+](=O)[O-])c3)CC2=O)cc1 (stereo not drawn),-4,·,·,·,8,9162,·
COc1ccc(NC(=O)c2cc([N+](=O)[O-])ccc2NC(=O)CNC2CCCCC2C)c(OC)c1 (stereo not drawn),0,-13,0,0,-7,4268,3.2
S=c1[nH]nc(-c2ccccn2)n1/N=C/c1cccc2ccccc12,-18,·,·,·,-24,1870,·
Cc1cc(C)cc(NC(=O)Nc2cnccn2)c1,2,-1,10,7,-18,5154,3.7
CCS(=O)(=O)NC(C)C(c1cccs1)N1CCN(C)CC1 (stereo not drawn),-6,6,7,1,·,11566,4.4
Cc1[nH]n(C(N)=S)c(=O)c1C(c1ccccc1)C(C#N)C#N (stereo not drawn),-4,-1,·,·,-9,4425,4.0
Cc1sc2nc(C3CC3)nc(SCC(=O)NCc3ccco3)c2c1C,-10,3,7,8,11,9059,9.0
O=C(O)CSc1c[nH]c2ccccc12,-2,-3,-5,4,-4,4036,-2.6
COCCN(CCOC)c1nc(-c2ccccc2)nc2ccccc12,-11,7,13,25,-27,3619,4.0
Cc1c(Cl)cccc1-n1c(SCC(=O)N(C)Cc2ccccc2)nnc1-c1ccncc1,-11,-6,15,6,-31,10450,6.8
CN(C)c1ccc(Nc2nc(N)c3ccccc3n2)cc1,33,·,·,·,77*,3438,·
Cc1ccc(CNC(=O)CNC(=O)c2ccc(Br)o2)cc1,16,-5,-1,1,-21,5802,-2.7
Cc1ccsc1C=Nn1c(-c2cc(-c3ccccc3)n[nH]2)n[nH]c1=S,·,-14,8,0,·,·,-0.9
C=CCNC(=O)CCCOc1ccc(C)cc1,0,-5,·,·,-22,2744,-2.1
CN(C)CCCN(C(=O)CCSc1ccccc1)c1nc2cc3c(cc2s1)OCO3,18,-7,8,4,-25,4660,-2.9
CSc1ncccc1C(=O)NCCc1ccccc1,0,·,·,·,-11,4373,·
COc1ccc(CNC(=O)c2cc(=O)c3cc(C)ccc3o2)cc1,3,8,7,5,-16,3637,2.3
C/C(=N\Nc1nc2ccccc2[nH]1)c1ccccn1,74*,·,·,·,26,5486,·
Cc1ccc(C(=O)OCC(=O)NC2CCS(=O)(=O)C2)c(C)c1 (stereo not drawn),·,12,3,-2,-3,4399,6.2
COc1ccc(-n2c(=S)[nH]c3cc(C(=O)NC4CCCCC4)ccc3c2=O)c(OC)c1,-24,3,7,7,-3,4865,9.3
O=C(NCC1CCCCC1)c1ccco1,-3,2,·,·,-14,22013*,2.7
Cn1c(C(=O)N2CCN(c3ccccc3)CC2)cc2cc(Cl)ccc21,-9,5,21,11,-47,3300,2.5
COc1ccccc1/C=C/C(=O)OCC(=O)c1c(N)n(C)c(=O)n(C)c1=O,-5,4,8,3,0,2037,-0.3
C=CCn1c(N)c(C(=O)NC2CCCCC2)sc1=S,-2,-5,-1,3,-4,23947*,3.9
CC(C)NC(=O)CCCC(=O)NC(C)C,11,·,·,·,0,2114,·
O=S(=O)(NCC1CCCO1)c1ccc(Cl)c(C(F)(F)F)c1 (stereo not drawn),-6,-4,17,4,15,21968*,5.3

# (further entries)
SMILES,BJeLR lethal,ugtP null kill,Mtb hypoxia inh,Mtb hypoxia inh growth,PrP 5UTR inh,Bead autofluor,RN4220 kill
Cc1[nH]c(=S)c(C#N)c(C)c1C(=O)Nc1ccccc1,-4,2,·,·,-4,2072,-5.4
CCCOC(=O)/C(=C\C=C\c1ccco1)NC(=O)c1ccccc1,-1,·,·,·,-31,2121,·
CC1(C)Cc2ccccc2-c2nc3n(c(=O)c21)CCS3,3,5,7,3,-19,4349,5.8
CCS(=O)(=O)N1CCC(C(=O)NC2CCCCCCC2)CC1,21,3,1,7,-21,7073,-3.9
Cn1c(=O)oc2cc(S(=O)(=O)N3CCCC(C(=O)NCc4cccs4)C3)ccc21 (stereo not drawn),6,1,0,2,-14,5992,2.8
CC(=NNC(=O)CN1CCN(Cc2ccccc2Cl)CC1)c1cccs1,·,-6,-4,-8,·,·,-2.4
COc1cc(C(=O)N/N=C(\c2ccccc2)c2ccccn2)cc(OC)c1OC,4,·,·,·,38,2161,·
Cn1c(COc2ccc(Cl)cc2)nnc1SCC(=O)Nc1ccc2c(c1)CCC2,-5,4,2,4,-11,8777,6.7
Cc1ccc(Nc2nc(N)nc(CSc3nnc(-c4ccncc4)o3)n2)cc1,3,3,·,·,-22,3645,2.5
COc1ccccc1OCC(O)CN1C(=O)NC(C)(C)C1=O (stereo not drawn),6,3,·,·,-10,5717,0.6
CC1CN(C)C(C)c2c1oc1ccc([N+](=O)[O-])cc21 (stereo not drawn),1,2,16,3,-13,3838,1.3
